# Assay outcomes from PubChem BioAssay.
# Menin MLL FP FL: qHTS Assay for Inhibitors Targeting the Menin-MLL Interaction in MLL Related Leukemias: Competition With Fluorescein Labeled MLL-derived Peptide | 290,000 tested, under 10 active | FP activity change, % at 61.4 µM | Fluorescence polarization, fluorescein-MLL peptide displacement from menin; inconclusive = falling polarisation curve, or a change in total fluorescence; inactive = total fluorescence flat and polarisation flat or rising; no compound was filed as active; the % refers to the polarisation; negative = inhibition;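 further: % of control where 0% means no effect; inhibitors lower the polarisation; unlabelled MLL peptide was the positive control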
# gsp agonist: qHTS for Agonist of gsp, the Etiologic Mutation Responsible for Fibrous Dysplasia/McCune-Albright Syndrome: qHTS; 340,000 compounds, 0.13% hits; AID 624287, 2012; Potency, µM (series often up to 76.9 µM), for the others: at the highest dose activation (cAMP increase), actives largely listed as activators; gsp mutant cells, cAMP HTRF, 30 min; control for the full effect not named in the record; active = well fitted activation curve with a large enough effect; inconclusive = small, poorly fitted or top-dose-only effect, or another doubt; inactive = no such curve, though single readings can be large or run the other way; cell line not stated here;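 further: phosphodiesterase inhibitor Ro 20-1724 added with compounds to block cAMP breakdown; potency means the concentration at half of the fitted maximal effect; nearly all actives have a fitted effect of over 60% in size; about a fifth of the inactives were tested at one dose only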
#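 Cells in DMEM/10% FBS with G418 were pretreated with compounds in DMSO plus […] (300 uM stock) for 30 min at 37C. cAMP was measured by HTRF (cAMP-d2 plus anti-cAMP antibody-K) after 30 min at room temperature.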
# ClpP mod: qHTS Assay for Activators of ClpP; ATP-dependent Clp protease proteolytic subunit (Bacillus subtilis (strain 168)), P80244; purified B. subtilis ClpP, FRET peptide cleavage, 20 min; Potency, µM (series often up to 57.5 µM), inactives show at the top dose activity change, negative = active; 340,000 compounds, 1.9% hits; active = well fitted falling curve with a large enough effect; inconclusive = small, poorly fitted or top-dose-only effect; inactive = no such curve, though single readings can be large or run the other way; further: potency means the concentration at half of the fitted maximal effect; the source files actives as falling curves though it sought activators and does not explain the sign; nearly all actives have a fitted effect of over 65% in size; many hits overshoot -100%
# Target sequence (P80244 whole entry, looked up): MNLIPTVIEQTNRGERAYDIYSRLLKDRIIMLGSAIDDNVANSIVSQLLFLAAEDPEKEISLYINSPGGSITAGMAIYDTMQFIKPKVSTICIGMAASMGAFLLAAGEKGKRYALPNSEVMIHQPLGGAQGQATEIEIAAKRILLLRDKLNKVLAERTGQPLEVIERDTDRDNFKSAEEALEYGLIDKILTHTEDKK
#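 ClpP 10 microg/mL final, pH 8 Tris/KCl buffer with BSA, glycerol, Tween-20; compound pinned in; FRET-FV substrate; RT 20 min; Ex320/Em430; ΔFRET vs ADEP 5.8 microM, DMSO, no enzyme.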
# PINK1 expr mod: A Quantitative High throughput Screen to Identify Chemical Modulators of PINK1 Expression; PINK1 immunofluorescence, high-content cytometry, 24 h; Potency, µM (top dose mostly 76.6 µM), for the others: at the top dose activation (PINK1 increase), hits mostly activators; AID 624263, 2012; 410,000 compounds, 0.2% hits; active = well fitted activation curve with a large enough effect; inconclusive = small, poorly fitted or top-dose-only effect; inactive = flat fitted curve, though single readings scatter; cell line not stated here;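 further: potency means the concentration at half of the fitted maximal effect; % of control where 0% means no effect; nearly all actives have a fitted effect of over 65% in size; a mitochondrial uncoupler was the plate control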
#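 Stable cell line treated 24 h with compounds at 5 concentrations (CCCP controls), then fixed and immunostained for PINK1 plus nuclear and cell stains; PINK1 immunofluorescence quantified by laser-scanning microplate cytometry.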
# D2 ag: Beta-Arrestin HTS for Positive Allosteric Modulators of the Human D2 Dopamine Receptor: Agonists; D(2) dopamine receptor (Homo sapiens), P14416; DiscoveRx PathHunter D2 beta-arrestin, luminescence, 90 min; 100% = 57 uM dopamine signal; activation, % (no concentration beside the values); 360,000 compounds, 0.084% hits; in the data active = activation above about 40%; inconclusive = about 15% to 40%; inactive = below about 15%; further: compound concentration not given in the record; the text of the record calls up to 30% inactive
# Target sequence (P14416 whole entry, looked up): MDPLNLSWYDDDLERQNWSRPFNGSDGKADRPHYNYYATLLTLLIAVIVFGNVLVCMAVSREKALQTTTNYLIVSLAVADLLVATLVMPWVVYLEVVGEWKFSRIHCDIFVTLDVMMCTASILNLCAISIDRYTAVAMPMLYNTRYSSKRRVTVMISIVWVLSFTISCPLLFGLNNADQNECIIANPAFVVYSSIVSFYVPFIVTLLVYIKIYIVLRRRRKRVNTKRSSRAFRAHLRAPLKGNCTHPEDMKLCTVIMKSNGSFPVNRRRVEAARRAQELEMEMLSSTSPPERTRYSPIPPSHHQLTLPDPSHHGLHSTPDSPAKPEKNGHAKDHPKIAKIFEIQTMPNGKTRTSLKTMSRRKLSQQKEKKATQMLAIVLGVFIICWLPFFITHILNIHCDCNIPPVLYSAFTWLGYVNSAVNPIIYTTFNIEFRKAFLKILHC
#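 DiscoveRx PathHunter D2 beta-arrestin cells (2,100/well) attached overnight, then compound-stimulated 90 min at 37 C in HBSS/10 mM HEPES/0.1% Tween-20 buffer; beta-galactosidase complementation read by luminescence after 1 h at ambient temperature. Dopamine 57 uM final (EC100) as control.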
# gsp antag: qHTS for Antagonists of gsp, the Etiologic Mutation Responsible for Fibrous Dysplasia/McCune-Albright Syndrome: qHTS | gsp-mutant cells, cAMP HTRF, 30 min; control for the full effect not named in the record | Potency, µM (doses to about 76.9 µM), without a hit: at the highest dose activity change, negative = inhibition, hits mostly inhibitors | 340,000 compounds, 0.4% hits | AID 624288, 2012; active = falling curve of any shape with a large fitted effect; inconclusive = falling curve, mostly with a smaller effect; inactive = flat or rising curve; cell line not stated here;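 further: intracellular cAMP measured with PDE inhibitor Ro 20-1724 present during compound exposure; potency means the concentration at half of the fitted maximal effect; on the % scale 0 is the no-effect control and ±100 the full control effect; nearly all actives have a fitted effect of over 65% in size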
#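 Cells, 2000/well, grown 16–24 h in DMEM 10% FBS with 0.5 mg/ml G418, then compounds plus […] (300 uM addition stock), 30 min at 37C. cAMP read by HTRF (cAMP-d2 and anti-cAMP antibody-K in lysis buffer) after 30 min RT.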
# Sfp PPTase inh: qHTS Assay for Inhibitors of Bacillus subtilis Sfp phosphopantetheinyl transferase (PPTase) | Biochemical Sfp PPTase activity, qHTS | Potency, µM, for the others: max response, negative = inhibition, usual class: inhibitors | 310,000 compounds, 3.5% hits | AID 1490, 2009 | 4'-phosphopantetheinyl transferase ffp (Bacillus subtilis), Q9F4F7; active means well fitted inhibition curve with a large enough effect; inconclusive means small, poorly fitted or top-dose-only effect, or another doubt; inactive means no such curve, though single readings can be large or run the other way;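 further: the enzyme is Sfp with the accession as filed and its product quenches rhodamine fluorescence; potency means the concentration at half of the fitted maximal effect; 0% = enzyme reaction without inhibitor and -100% = no enzyme wells; top concentration of the series not given in the record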
#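 After 15 min at room temperature with compound, 15 nM Sfp received 5 uM rhodamine-CoA plus 12.5 uM BHQ-2-ybbR (50 mM Hepes pH 7.6, 10 mM MgCl2). Rate came from the fluorescence difference over 30 min, ex 525/em 598 nm.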
# * = called active by the depositor; ? = inconclusive; . = no result given; & = joins results of further samples; [ ] = dose if it differs, or a comment.
SMILES,Menin MLL FP FL,gsp agonist,ClpP mod,PINK1 expr mod,D2 ag,gsp antag,Sfp PPTase inh
CCCOc1ccc(-c2cc(C(F)(F)F)c(C#N)c(SCC(=O)O)n2)cc1,-0.8,-3.6%[15.4 µM],.,-0.1%,-7.0,?,8.7%
O=c1c2ccccc2oc2ccc(-c3ccc4[nH]ccc4c3)cc12,.,10.7%,-5.7%,3.2%,-4.8,-4.6%,.
CCN1CCC2(CC1)Oc1c(OC)cccc1C1CC(c3cccnc3)=NN12 (centres undefined),6.0,23.1%,.,1.1%,4.3,0.7%,13.2%
CC(C)C[C@H](NC(=O)c1nc[nH]c1C(=O)NCC(=O)OC(C)(C)C)C(=O)OCc1ccccc1,0.5,.,0.8%,14.9%,0.2,-11.2%,20.6%
C[C@H](c1ccccc1)n1nnc(COCc2ccccc2)c1C#CCOCc1ccccc1,0.9,.,-0.2%,0.9%,0.6,-4.0%,1.5%
O=C1CCNCCN1[C@H](CO)c1ccccc1,-8.4,.,-3.0%&-0.6%,-0.4%,1.0,13.8%,3.0%
Cc1cccc(C)c1NC(=O)CN1CCN(CC(=O)NCC2(N3CCCCC3)CCCCC2)CC1,.,-28.8%,-0.6%,-0.1%,-0.4,10.6%,.
Cc1ccc(O)c(C(=O)c2cc(C#N)c(=O)n(C(C)c3ccccc3)c2)c1 (centres undefined),8.5,11.9%[15.4 µM],-1.7%,0.2%,5.4,?,-6.2%
COc1ccc(OC)c(C(C(=O)NCc2ccco2)N(C(=O)Cn2nnc3ccccc32)C2CC2)c1 (centres undefined),1.6,-32.4%[inhibitor],-3.0%,4.1%,-5.0,-1.0%,1.5%
Cc1ccc(CNc2ccc(Cl)cc2[N+](=O)[O-])cc1,0.8,4.4%,-2.7%,2.6%,-1.7,-5.9%,?
CCSC(N)=Nc1ccc(C(F)(F)F)cc1,3.1,.,-1.5%,0.9%,.,.,.
Oc1ccc(/C=N/Nc2cc(N3CCCC3)nc(N3CCCC3)n2)cc1,-0.1,-26.2%,-22.6%,0.7%[38.3 µM],1.2,-22.0%,1.5%
COc1ccccc1C(=O)NC(=S)Nc1ccc(S(=O)(=O)N2CCN(C)CC2)cc1,0.3,?,-3.5%,-2.3%,0.6,9.7%,?
CC(=O)NCCc1nc2ccccc2n1CCOc1ccccc1,-1.0,?,-1.8%,1.8%,-3.6,16.1%,9.4%
COC(=O)[C@H](Cc1ccccc1)N(C)S(=O)(=O)c1cccc(S(=O)(=O)N(C)[C@@H](Cc2ccccc2)C(=O)OC)c1,-1.1,0.5%,-6.4%,-1.3%,-2.6,-2.4%,19.7%
Oc1ccccc1/C=N/Nc1cccc2cccnc12,?,?,1.1%,2.5%,1.5,-25.8%,?
CCCCOC(=O)Sc1nc2ccccc2o1,3.2,23.4%,-0.2%,-1.6%,-1.7,7.0%,39.8µM*
COc1cc(NC(=O)CSc2nc3ccccc3cc2Cc2ccccc2)cc(OC)c1,0.9,-46.3%[inhibitor],0.7%,?,-2.0,0.3%,12.4%
S=c1nc(C2CCCCC2)[nH][nH]1,-1.5,-4.8%,-1.2%,-19.3%[38.3 µM],1.9,7.1%,56.2µM*
Nn1c(=S)[nH]c2sc3c(c2c1=O)CCCC3,.,?,.,-1.2%,-4.8,-10.7%,.
COc1ccc(C(=O)NCC2CCCCC2)cc1S(=O)(=O)N1CCCC1,.,?,0.4%,3.5%,5.1,-3.1%,.
O=S1(=O)CC/C(=N/Nc2ccc(C(F)(F)F)cn2)c2cc(F)ccc21,-0.7,-7.7%[15.4 µM],.,4.0%,4.2,-9.4%,17.1%
O=[N+]([O-])c1ccc(-c2c[nH]c(=S)[nH]2)cc1,3.3,-50.1%[inhibitor],1.0%,0.3%,0.5,-0.1%,3.55µM*
O=C(Cc1cccc(NC(=O)C2CCN(C(=O)C3CCCC3)CC2)c1)Nc1cccc(C(=O)N2CCOCC2)c1,.,.,-0.3%,1.6%,-1.1,5.6%,.
CC(=O)Nc1ccc(NC(=O)C(C)OC(=O)c2ccccc2Sc2ccccc2C#N)cc1 (centres undefined),-3.4,-0.1%[15.4 µM],-0.1%,1.1%,-1.7,-32.9%,1.9%
CC(C)Oc1ccc(CN2CCC2(C)C(=O)Nc2cccc(Oc3ccccc3)c2)cc1 (centres undefined),.,.,-3.3%,5.2%,2.0,.,.
CNC(=S)NNC(=O)c1cccn(Cc2ccc(Cl)c(Cl)c2)c1=O,2.6,-64.8%[inhibitor],71.4%,-13.6%[38.3 µM],-1.4,4.0%,-23.7%
COc1cccc(/C=C2\SC(=S)N(CCCC(=O)Nc3cccc(C(=O)O)c3)C2=O)c1,.,-2.4%,0.7%,-0.4%,-5.2,.,.
CC1(C)Cc2c(ccc3ccccc23)-c2nnc(-c3cccnc3)n21,4.5,-12.2%,-12.7%,-5.4%[38.3 µM],2.8,-7.2%,7.8%
CCOC(=O)c1ccccc1NC(=O)c1cn(-c2ccc(OC)cc2)c(=O)c2ccccc12,5.3,0.3%,?,-0.3%,1.6,-16.3%,-28.6%
O=C(NC(NC(=O)c1ccccc1)C(=O)c1ccccc1)c1ccccc1,6.6,29.1%,-0.2%,8.3%,-1.1,11.5%,-7.2%
CS(=O)(=O)N1CCCC(C(=O)N2CCc3ccccc3C2)C1 (centres undefined),1.2,-25.0%,-2.6%,5.2%[38.3 µM],1.1,0.1%,22.0%
CC1(C)COC(Cc2ccccc2)=N1,.,-29.0%,-0.8%,-0.7%,-1.8,.,.
COc1ccc(Br)cc1CNC(=O)CCN1C(=O)COc2ccccc21,1.9,-73.4%[inhibitor],1.0%,.,-0.5,1.3%,9.6%
COc1ccccc1/C=N/NC(=O)CC(=O)NCCc1ccccc1,.,20.1%[15.4 µM],.,-0.8%,-3.5,-2.8%,.
C=CCNc1nc2ccccc2nc1NS(=O)(=O)c1ccc(Br)cc1,5.7,-62.2%[inhibitor][15.4 µM],.,?,0.7,-11.6%,19.0%
Cc1ccc(N(Cc2ccccc2)C(=O)c2ccc(F)c(S(=O)(=O)N3CCOCC3)c2)cc1,.,-11.1%,1.0%,-2.3%,-7.2,-24.1%,.
COc1ccc(-c2csc(N3N=C(C)C(C)C3=O)n2)cc1 (centres undefined),1.7,-1.1%[15.4 µM],.,2.0%,0.3,.,21.0%
CSc1cccc(-n2c(C)cc(C(N)=O)c2C)c1,3.8,3.3%,0.4%,2.0%,-4.4,11.4%,-16.3%
COc1ccc(S(=O)(=O)NC2CC3CCC2C3)cc1 (centres undefined),2.2,?,.,0.3%,-3.1,8.1%,26.8%
COc1cccc(NC(=O)N2C3CCCC2CC(NC(=O)C2CC2)C3)c1 (centres undefined),3.7,-11.7%,.,-1.8%,-3.7,1.2%,8.2%
O=C(NCc1ccco1)C1CC(c2ccccc2O)=NO1 (centres undefined),1.8,-0.5%[15.4 µM],.,4.8%,-0.8,18.4%,-26.0%
O=C(COc1ccc(CNC[C@H]2O[C@@H](n3ccc(=O)[nH]c3=O)[C@H](O)[C@@H]2O)cc1)Nc1nccs1,.,.,0.4%,0.6%,-4.0,.,.
CC(C)=CCOc1c2ccoc2c(OCC=C(C)C)c2oc(=O)ccc12,.,-1.2%,-3.1%,9.2%,8.8,?,.
N#CC(c1ccc(F)cc1)c1ccc(C(=O)c2ccc(F)cc2)cc1 (centres undefined),-0.5,-23.2%,-3.1%,-0.6%,3.4,10.4%,4.1%
COC(=O)c1cc2c(=O)n3ccccc3nc2n(Cc2cccnc2)c1=N,.,11.9%,6.31µM*,-1.5%,2.3,-0.6%,.
Cc1ccc2c(c1)c(N=Nc1ccc([N+](=O)[O-])cc1)c(O)n2C,?,0.1%[15.4 µM],0.7%,1.7%,-0.5,-4.2%,17.7%
COc1ccc([C@H]2CC(=O)C=C(c3ccc4c(c3)sc3ccccc34)C2)cc1,.,.,-2.0%,-0.5%,-0.5,5.0%,.
Cc1ccc(-n2c(C(C)C)nc3oc4ccccc4c(=O)c3c2=O)cc1,3.9,-9.9%,2.7%,0.3%,-0.4,?,17.4%
CC(C)(C)C(=O)NC1=NCCS1,0.5,27.9%,-1.4%,2.8%,-0.1,8.6%,10.9%

# Next structures
SMILES,Menin MLL FP FL,gsp agonist,ClpP mod,PINK1 expr mod,D2 ag,gsp antag,Sfp PPTase inh
O=C(CCCOc1ccc(Cl)cc1Cl)N/N=C\C1CCCCC1,1.3,-3.8%,2.5%,.,0.7,-6.1%,4.6%
O=C1NC(=Nc2ccccc2)c2c1cccc2[N+](=O)[O-],-1.6,25.3%,?,0.5%,-0.4,8.9%,14.3%
COc1ccc(-n2c(C)cc(SC)c(C(C)=O)c2=S)cc1,2.8,11.7%,-3.5%,-1.6%,-4.1,-0.3%,-5.0%
O=C(O)CCCN1C(=O)c2cccc3cccc(c23)C1=O,9.3,21.4%,4.2%,1.2%,-1.0,-10.1%,14.1%
Cc1nn(-c2ccccc2)c2c1C1(C(=O)Nc3ccccc31)N1C(=N2)Sc2ccccc21 (centres undefined),1.6,0.1%,5.0%,-0.2%,-0.7,?,2.5%
CCN1CC(CN(C)Cc2nc(Cc3ccccc3)no2)CC1=O (centres undefined),-1.4,6.5%,0.1%,-0.1%,0.4,8.4%,18.4%
Cc1c(C(=O)NCc2ccccc2CN2CCCC2)oc2ccc(F)cc12,.,-9.2%,-5.5%,1.0%,-0.7,8.8%,.
CC(=O)c1ccc(N2Cc3ccccc3C3(CCOCC3)C2=N)cc1,-5.5,6.2%,1.7%,0.6%,-2.4,8.4%,12.5%
Cc1ccc(S(=O)(=O)N2CCN(c3ccccc3)CC2)cc1C,3.2,-13.2%[15.4 µM],17.8µM*,-0.9%,-2.2,-20.6%,13.0%
CCN(CC)C(=O)Cn1cc(S(=O)(=O)CC(=O)Nc2ccccc2F)c2ccccc21,.,10.1%[15.4 µM],2.2%,-0.1%,7.3,-18.0%,.
